Compound activity: PubChem BioAssay, National Center for Advancing Translational Sciences (NCATS)
D2 agonist: agonists of human D2 dopamine receptor (beta-arrestin); 0.084% of 360,000 active; DiscoveRx PathHunter D2 beta-arrestin, luminescence, 90 min; 100% = 57 uM dopamine signal; AID 624465; P14416; activation, % (test concentration not listed); in the data active = activation above about 40%; inconclusive = about 15% to 40%; inactive = below about 15%; also: compound concentration not given in the record; the text of the record calls up to 30% inactive
Target sequence (P14416 whole entry, looked up): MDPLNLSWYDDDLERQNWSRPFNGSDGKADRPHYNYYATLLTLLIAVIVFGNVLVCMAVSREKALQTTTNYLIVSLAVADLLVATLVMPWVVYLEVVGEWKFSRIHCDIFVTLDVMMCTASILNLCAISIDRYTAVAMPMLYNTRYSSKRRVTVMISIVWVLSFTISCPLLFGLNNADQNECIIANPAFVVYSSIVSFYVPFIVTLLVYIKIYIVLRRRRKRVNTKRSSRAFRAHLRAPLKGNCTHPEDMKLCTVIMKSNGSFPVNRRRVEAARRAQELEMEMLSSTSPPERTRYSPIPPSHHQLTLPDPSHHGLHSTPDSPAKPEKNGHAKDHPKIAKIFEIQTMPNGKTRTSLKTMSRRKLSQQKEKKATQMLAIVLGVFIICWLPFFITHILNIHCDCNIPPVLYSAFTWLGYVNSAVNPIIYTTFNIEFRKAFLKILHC
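Agonist mode: compounds alone added to overnight-plated D2 PathHunter cells for 90 min at 37 C, with 57 uM final dopamine (EC100) defining full response. Beta-arrestin recruitment detected by chemiluminescent reagent, read after 1 h at ambient temperature.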
Menin MLL FP FL: inhibitors of human menin-MLL interaction, wild-type MLL peptide; Fluorescence polarization, fluorescein-MLL peptide displacement from menin; FP activity change, % at 61.4 µM; 290,000 tested, under 10 active; AID 1766; inconclusive = falling polarisation curve, or a change in total fluorescence; inactive = total fluorescence flat and polarisation flat or rising; no compound was filed as active; the % refers to the polarisation; negative = inhibition;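 also: % of control where 0% means no effect; inhibitors lower the polarisation; unlabelled MLL peptide was the positive control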
PINK1 modulator: changes PINK1 expression; PINK1 immunofluorescence, high-content cytometry, 24 h; Potency, µM (highest dose often 76.6 µM), inactives show at the highest dose activation (PINK1 increase), actives largely listed as activators; 0.2% of 410,000 active; AID 624263; active = well fitted activation curve with a large enough effect; inconclusive = small, poorly fitted or top-dose-only effect; inactive = flat fitted curve, though single readings scatter; cell line not stated here;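 also: potency is read from the fitted curve at half-maximal effect; % of control where 0% means no effect; nearly all actives have a fitted effect of over 65% in size; a mitochondrial uncoupler was the plate control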
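Stable cell line, 250 cells/well, 12 h attachment; compounds pinned at 5 concentrations, 24 h; CCCP control. Fixed with nuclear dye, primary antibodies 12 h at 10 degrees C, secondary plus cell stain; laser-scanning cytometer read.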
gsp agonist: activates gsp, the McCune-Albright syndrome mutation | gsp mutant cells, cAMP HTRF, 30 min; control for the full effect not named in the record | Potency, µM (highest dose often 76.9 µM), for inactives: at the highest dose activation (cAMP increase), hits mostly activators | 0.13% of 340,000 active | AID 624287; active = well fitted activation curve with a large enough effect; inconclusive = small, poorly fitted or top-dose-only effect, or another doubt; inactive = no such curve, though single readings can be large or run the other way; cell line not stated here;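 also: phosphodiesterase inhibitor Ro 20-1724 added with compounds to block cAMP breakdown; potency is read from the fitted curve at half-maximal effect; nearly all actives have a fitted effect of over 60% in size; about a fifth of the inactives were tested at one dose only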
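Cells in DMEM/10% FBS with G418 were pretreated with compounds in DMSO plus […] (300 uM stock) for 30 min at 37C. cAMP was measured by HTRF (cAMP-d2 plus anti-cAMP antibody-K) after 30 min at room temperature.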
ClpP mod: qHTS Assay for Activators of ClpP; AID 651965, 2013; purified B. subtilis ClpP, FRET peptide cleavage, 20 min; 1.9% of 340,000 active; ATP-dependent Clp protease proteolytic subunit (Bacillus subtilis (strain 168)), P80244; Potency, µM (doses to about 57.5 µM), without a hit: top-dose activity change, negative = active; active = well fitted falling curve with a large enough effect; inconclusive = small, poorly fitted or top-dose-only effect; inactive = no such curve, though single readings can be large or run the other way; also: potency is read from the fitted curve at half-maximal effect; the source files actives as falling curves though it sought activators and does not explain the sign; nearly all actives have a fitted effect of over 65% in size; many hits overshoot -100%
Target sequence (P80244 whole entry, looked up): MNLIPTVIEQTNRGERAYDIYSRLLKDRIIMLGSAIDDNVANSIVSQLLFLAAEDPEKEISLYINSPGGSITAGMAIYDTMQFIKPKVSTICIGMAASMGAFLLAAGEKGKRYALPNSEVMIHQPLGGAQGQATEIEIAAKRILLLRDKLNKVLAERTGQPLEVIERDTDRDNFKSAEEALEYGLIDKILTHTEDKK
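Buffer: 100 mM Tris/HCl pH8, 100 mM KCl, 0.05% low protease BSA, 2.5% glycerol, 0.01% Tween-20. ClpP 10 microg/mL final; 20 min RT; delta FRET normalized to ADEP and DMSO controls.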
gsp antag: gsp mutant antagonism; AID 624288; Potency, µM (titrated, usually from 76.9 µM), for inactives: at the top dose activity change, negative = inhibition, actives largely listed as inhibitors; gsp-mutant cells, cAMP HTRF, 30 min; control for the full effect not named in the record; 0.4% of 340,000 active; active = falling curve of any shape with a large fitted effect; inconclusive = falling curve, mostly with a smaller effect; inactive = flat or rising curve; cell line not stated here;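 also: intracellular cAMP measured with PDE inhibitor Ro 20-1724 present during compound exposure; potency is read from the fitted curve at half-maximal effect; % is scaled to controls: 0 for no effect and ±100 for the full control effect; nearly all actives have a fitted effect of over 65% in size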
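Cells in G418 medium, seeded 16-24 h, 37C; buffer exchange to DPBS + 1 mM CaCl2, 0.5 mM MgCl2, 0.05% BSA; cpds in DMSO + […] (300 uM stock), 30 min 37C; HTRF cAMP detection.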
Sfp inh: Sfp phosphopantetheinyl transferase inhibition; Biochemical Sfp PPTase activity, qHTS; 3.5% of 310,000 active; Potency, µM, for inactives: max response, negative = inhibition, most hits filed as inhibitors; Q9F4F7; active = well fitted inhibition curve with a large enough effect; inconclusive = small, poorly fitted or top-dose-only effect, or another doubt; inactive = no such curve, though single readings can be large or run the other way;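 also: the enzyme is Sfp with the accession as filed and its product quenches rhodamine fluorescence; potency is read from the fitted curve at half-maximal effect; 0% = enzyme reaction without inhibitor and -100% = no enzyme wells; top concentration of the series not given in the record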
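After 15 min at room temperature with compound, 15 nM Sfp received 5 uM rhodamine-CoA plus 12.5 uM BHQ-2-ybbR (50 mM Hepes pH 7.6, 10 mM MgCl2). Rate came from the fluorescence difference over 30 min, ex 525/em 598 nm.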
* marks the source's active call; other numbers are inactive results; ? = inconclusive; . = no result given; [ ] = another dose, or the depositor's remark.

Abbreviations – A = D2 agonist; B = Menin MLL FP FL; C = PINK1 modulator; D = gsp agonist; E = ClpP mod; F = gsp antag; G = Sfp inh
> Cc1cc(C)n(C2=NS(=O)(=O)c3ccccc32)n1
  A = -2.3; B = 3.4; C = 7.6%[38.3 µM]; D = 7%; E = -4.1%; F = 4%; G = 14%

> CC(=O)OCC(=O)C1(O)CCC2C3CCC4=CC(=O)C=CC4(C)C3C(O)CC21C (configuration not stated)
  A = 5.3; B = -0.7; C = 0.9%; D = 7%[15.4 µM]; E = .; F = 10%; G = 11%

> CN(Cc1ccccc1)C(=O)c1ccc2nc([C@H]3C[C@H](O)[C@@H](CO)O3)[nH]c2c1
  A = -2.4; B = .; C = 0.4%; D = .; E = -2.6%; F = .; G = .

> O=C1OCCC1Sc1nnc(-c2ccc(Cl)cc2Cl)o1 (configuration not stated)
  A = -2.6; B = 4.2; C = 0.9%; D = 0%[15.4 µM]; E = .; F = 6%; G = -11%

> Cc1ccc(Nc2nc(Cl)nc(NC(C)(C)C)n2)cc1
  A = -0.3; B = -2.5; C = 3.5%; D = -27%; E = 0.8%; F = -16%; G = 1%

> Cc1ccccc1C(=O)NC(C(N)=O)P(=O)(OC(C)C)OC(C)C (configuration not stated)
  A = 1.1; B = 2.8; C = -0.9%; D = 12%; E = .; F = 6%; G = 23%

> O=C(NCCN1CCOCC1)C(=O)c1c[nH]c2ccccc12
  A = -3.1; B = 7.9; C = 0.5%; D = -1%[15.4 µM]; E = .; F = 4%; G = 19%

> Cc1cc(C)cc(N2C(=O)CC(c3ccccc3)CC2=O)c1
  A = -2.6; B = .; C = 2.1%; D = -17%; E = -0.9%; F = ?; G = .

> COc1ccccc1C(=O)N1CCN(c2nc3cc(C)c(C)cc3cc2C#N)CC1
  A = 2.6; B = -6.9; C = -1.9%; D = -23%; E = ?; F = ?; G = -2%

> CC(C)C(c1nnnn1Cc1cccs1)N1CCN(C2CCCC2)CC1 (configuration not stated)
  A = -3.3; B = 0.2; C = -1.0%; D = -27%; E = 0.7%; F = 2%; G = 6%

> O=C(C1=C[C@@H](c2ccc3c(c2)OCO3)C[C@@H](OCc2ccc(CO)cc2)O1)N1CCOCC1
  A = -1.6; B = 0.8; C = 1.9%; D = 2%; E = 0.6%; F = -12%; G = 9%

> CC1CCN(C(=O)CN2C(=O)C(=O)c3ccccc32)CC1
  A = -7.5; B = 1.0; C = 2.6%; D = ?; E = -0.2%; F = 5%; G = -5%

> CCCC1(c2ccccc2)NC(=O)N(CC(=O)N2CC(=O)Nc3ccccc32)C1=O (configuration not stated)
  A = -0.8; B = .; C = -0.8%; D = -8%; E = -5.6%; F = 4%; G = .

> O=C(CSc1nc(=O)n2ccccc2n1)NCc1ccccc1Cl
  A = -2.8; B = .; C = -0.5%; D = ?; E = ?; F = 7%; G = .

> Cc1ccn2c(=O)c(NC(=O)COc3ccccc3)c(C)nc2c1
  A = -0.7; B = .; C = 1.8%; D = 10%; E = ?; F = 11%; G = .

> CCn1c(SCC(=O)NCc2ccc(F)cc2)nc2c(c1=O)SC(C)C2 (configuration not stated)
  A = 1.6; B = 0.5; C = 0.9%; D = -27%; E = -1.4%; F = -4%; G = 2%

> Cc1ccc(C(=O)Nc2ncc(Cc3ccc(SC(F)F)cc3)s2)cc1
  A = 3.0; B = 4.4; C = 5.5%; D = -43%[inhibitor]; E = ?; F = 13%; G = 10%

> COCCn1c(=NC(=O)CSCC(=O)NC2CCCCC2)sc2cc(OC)ccc21
  A = -0.9; B = -2.7; C = 6.0%; D = -32%; E = ?; F = -10%; G = 11%

> CCOC(=O)/C(=N\Nc1cc(Cl)ccc1Cl)N1CCOCC1
  A = -3.0; B = -4.1; C = 0.3%; D = 10%; E = .; F = -1%; G = -9%

> CCNc1nc(NCC)nc(N(C#N)C(C)C)n1
  A = -2.0; B = -0.7; C = 2.9%; D = 15%[15.4 µM]; E = .; F = 17%; G = 10%

> CCN1C(=O)CC(C(=O)O)SC1=Nc1ccc(OC)cc1 (configuration not stated)
  A = -0.6; B = 3.9; C = 1.5%[38.3 µM]; D = -3%; E = -0.4%; F = -4%; G = 17%

> CCc1cccc(C)c1NC(=O)CN(C)Cc1cccc(F)c1
  A = 3.8; B = 2.1; C = 1.0%; D = -11%[15.4 µM]; E = 0.9%; F = -13%; G = -2%

> Cc1ccc(CCNC(=O)CN(C)S(=O)(=O)c2ccc3c(c2)c(=O)n(C)c(=O)n3C)cc1
  A = -5.5; B = 4.2; C = 2.2%; D = ?; E = -4.5%; F = -26%; G = 13%

> Cc1ccc(NC(=O)/C=C\C(=O)NCC(=O)O)cc1C
  A = -1.7; B = 0.1; C = -2.1%; D = 16%[15.4 µM]; E = -1.0%; F = 6%; G = -19%

> CCOC(=O)c1c(C)n(C(=O)c2ccco2)c(=O)n1C(=O)c1ccco1
  A = -1.0; B = 2.6; C = 0.8%; D = 3%; E = 0.1%; F = 14%; G = -5%

Further entries follow:
Abbreviations – A = D2 agonist; B = Menin MLL FP FL; C = PINK1 modulator; D = gsp agonist; E = ClpP mod; F = gsp antag; G = Sfp inh
> COc1cc(CNn2c(C)n[nH]c2=S)cc(Cl)c1OCC(=O)NC(C)(C)C
  A = 11; B = -3.8; C = 2.6%; D = 25%; E = .; F = 2%; G = -7%

> O=C(CN1C(=O)CSc2ncccc21)N1CCOCC1
  A = -3.1; B = -0.6; C = 0.0%; D = 16%; E = -1.0%; F = 5%; G = 20%

> Cc1ccc(C(=O)Nc2ccc(F)cc2)cc1NC1=NC2CS(=O)(=O)CC2S1 (configuration not stated)
  A = 6.3; B = -3.2; C = 0.0%; D = ?; E = -0.3%; F = 2%; G = 1%

> CNc1ccccc1C(C)(C)c1cc(-c2ccco2)n[nH]1
  A = 1.2; B = 1.9; C = 4.8%[38.3 µM]; D = -3%; E = 1.5%; F = -5%; G = 56µM*

> CCC(=O)NC(Nc1cccc(C)n1)(C(F)(F)F)C(F)(F)F
  A = -1.9; B = 4.4; C = 0.1%; D = 0%; E = -3.1%; F = 7%; G = 22%

> CCCNS(=O)(=O)c1ccc(OCC(=O)OC)cc1
  A = 1.8; B = 0.8; C = 7.8%[38.3 µM]; D = 0%; E = 0.9%; F = 1%; G = 15%

> COc1cc(/C=N/n2c(SC)nnc(C(C)(C)C)c2=O)ccc1O
  A = -4.9; B = -0.8; C = -0.8%; D = -36%[inhibitor]; E = 1.9%; F = -3%; G = 17%

> Cc1nn(CC(=O)N(C)C2CCS(=O)(=O)C2)c(C)c1[N+](=O)[O-] (configuration not stated)
  A = 3.1; B = .; C = 0.2%; D = -5%[15.4 µM]; E = 1.0%; F = 9%; G = .

> COc1ccc(C(=S)N2CCOCC2)cc1OC(=O)c1cccc([N+](=O)[O-])c1
  A = 3.0; B = -5.7; C = 1.1%; D = -25%; E = 0.3%; F = 6%; G = 20%

> Cc1ccc(CNC(=O)CCc2c(C)nc3ncnn3c2C)cc1
  A = -0.8; B = -5.0; C = -0.3%; D = 17%; E = 0.4%; F = 5%; G = 19%

> N#C/C(=C(/O)COc1cccc2ccccc12)c1nc2ccccc2[nH]1
  A = 2.9; B = 4.9; C = 12%; D = 16%; E = 0.7%; F = 7%; G = 11%

> CN(Cc1ccccc1)C(=O)C1CCN(S(=O)(=O)c2cccc3nsnc23)CC1
  A = 0.3; B = 2.0; C = -0.6%; D = 21%; E = 1.1%; F = -9%; G = 14%

> CC(NC(=O)C1CCCCC1)C(=O)NC1=NCCS1 (configuration not stated)
  A = -3.7; B = 5.4; C = .; D = 0%; E = -1.1%; F = 10%; G = 18%

> Cc1nc(C(=O)N/N=C/c2[nH]ncc2Br)cs1
  A = 0.4; B = 1.1; C = -0.9%; D = -3%; E = .; F = -1%; G = 0%

> CC(C)(C)OC(=O)C(C(=O)OC(C)(C)C)c1ccc(Cl)nn1
  A = -4.3; B = 0.0; C = -0.3%; D = ?; E = -1.3%; F = -3%; G = 20%

> Cc1cccc(OCC(=O)Nc2cc(S(=O)(=O)N3CCOCC3)ccc2N2CCCC2)c1C
  A = 1.3; B = .; C = 1.3%; D = ?; E = -6.7%; F = -14%; G = .

> COc1ccccc1N1CCN(Cc2cc(=O)c(OCC(=O)NC3CCCC3)co2)CC1
  A = 1.8; B = .; C = 2.1%; D = -7%[15.4 µM]; E = .; F = 11%; G = .

> CCN(CC)S(=O)(=O)c1cccc(C(=O)N/N=C/c2ccc(N3CCOCC3)cc2)c1
  A = 3.5; B = -4.8; C = 0.5%; D = 25%; E = .; F = -1%; G = 8%

> CCOC(=O)c1cnc(-n2nc(C)cc2C)nc1NC(C)c1ccccc1 (configuration not stated)
  A = -3.7; B = 2.1; C = -0.9%; D = -27%; E = -13%; F = -6%; G = -26%

> COc1cc2c(cc1OC)C1C/C(=N\O)C(CC(C)C)CN1CC2 (configuration not stated)
  A = -0.7; B = 0.1; C = 1.6%; D = 2%; E = 3.3%; F = 1%; G = 20%

> CCOc1ccccc1Oc1nc(-c2ccccc2O)nc2ccccc12
  A = -12; B = -1.1; C = 2.9%; D = 13%; E = 0.3%; F = 0%; G = 11%

> COc1ccc(OCC(O)CNC(=O)c2ccc(C)cc2)cc1 (configuration not stated)
  A = -0.5; B = 1.2; C = -1.4%; D = -1%[15.4 µM]; E = .; F = -2%; G = 25%

Single records (already shown):
Shown for Cc1cc(C)n(C2=NS(=O)(=O)c3ccccc32)n1 → D2 agonist: -2.3; Menin MLL FP FL: 3.4; PINK1 modulator: 7.6%[38.3 µM]; gsp agonist: 7%; ClpP mod: -4.1%; gsp antag: 4%; Sfp inh: 14%
Shown for CC(NC(=O)C1CCCCC1)C(=O)NC1=NCCS1 (configuration not stated) → D2 agonist: -3.7; Menin MLL FP FL: 5.4; PINK1 modulator: .; gsp agonist: 0%; ClpP mod: -1.1%; gsp antag: 10%; Sfp inh: 18%
